# NPYLR7 ag = mosquito NPYLR7 agonism. activation, % at 10 µM. actives 0.15% (n = 270,000). HEK293T NPYLR7/Galpha15, GCaMP6s calcium fluorescence; in the data active = activation above about 40%;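 also: 0% = vehicle and 100% = reference agonist at the receptor; some compounds past the cut are filed as inactive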
# NPYLR7 ag max-min = second read-out of NPYLR7 ag, no call of its own (marks repeat the call); activation, %; measured here: Max-Min RFU normalised activation; some inactives read as strong as hits;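 span of the calcium signal over five minutes; 0% = vehicle and 100% = native peptide agonist; compound fluorescence can raise it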
# * = called active by the depositor; & = joins results of further samples. An excerpt; rates above refer to the full screens.
SMILES,NPYLR7 ag,NPYLR7 ag max-min
COc1ccc2c(c1)CCc1c(-c3ccc(C(=O)NCc4c(C)cccc4Cl)cc3)n[nH]c1-2,4,3
Cc1cc(=O)oc(C)c1C(=O)Nc1ccc2nc(-c3ccco3)[nH]c2c1,1,2
COc1ccc(NC(=O)CCC2CCCN(C(=O)CSc3ccccc3)C2)c(C)c1 (stereo not drawn),3,-1
c1cncc(-c2nc(N3CCCC4CCCCC43)c3ccccc3n2)c1 (stereo not drawn),9,6
CC(=O)Nc1ccc(N=Cc2nc(-c3ccc(Cl)cc3)oc2O)cc1,1,-9
CN(CCc1ccccn1)C(=O)C1CC1(c1ccccc1)c1ccccc1 (stereo not drawn),-11,-16
CCc1nc(CN2CCCC(C(=O)c3ccc4c5c(cccc35)CC4)C2)c(C)[nH]1 (stereo not drawn),7,3
CCOC(=O)c1cc(-c2ccc(N3CCN(C(=O)Cc4ccc(OC)cc4)CC3)cc2)n(-c2cccc(F)c2)n1,25,16
O=C(CC1CSc2nc3c(c(=O)n21)CCCC3)N1CCN(c2cccc(Cl)c2)CC1 (stereo not drawn),-4,-5
CCCCCC(=O)Nc1c(-c2cc(C)cc(C)c2)nc2ccccn12,-5,-2

# Two entries from above, bar-delimited.
mol | NPYLR7 ag | NPYLR7 ag max-min
CC(=O)Nc1ccc(N=Cc2nc(-c3ccc(Cl)cc3)oc2O)cc1 | 1 | -9
CN(CCc1ccccn1)C(=O)C1CC1(c1ccccc1)c1ccccc1 (stereo not drawn) | -11 | -16

# The results go on.
SMILES,NPYLR7 ag,NPYLR7 ag max-min
Cc1ccc(-n2nc3c(c2NC(=O)c2ccccc2)CS(=O)(=O)C3)cc1,-1,-1
COc1ccc(CCN(Cc2cccs2)C(=O)CN(CC2CCCO2)C(=O)Nc2c(C(C)C)cccc2C(C)C)cc1OC (stereo not drawn),-12,-14
CO[C@H](C(=O)N1CCc2c(nc(-c3cccnc3)[nH]c2=O)C1)c1ccccc1,9,3
CN(Cc1ccc(F)cc1)C(=O)NCc1ccc2c(c1)OCO2,2&7,2&0
Nc1ccnn1CC1CCOC1 (stereo not drawn),2,-1
CC(C)c1n[nH]c(=O)c2c1cnn2-c1ccccc1,5,3
COc1c(Br)c(CC2CC(C(N)=O)=NO2)c(Br)c2c1OCO2 (stereo not drawn),-5,-10
O=C(CCCn1cncn1)N1CCCC2(C=Cc3ccccc3O2)CC1 (stereo not drawn),1,-1
O=C(CN1CCN(c2ccc3c(c2)OCCO3)C1=O)Nc1nc(-c2ccco2)cs1,-4,-4
N#Cc1ccc(/C=C/c2nc3ccccc3c(=O)[nH]2)cc1,4,0

# Record cards (already shown). Values in the order: NPYLR7 ag, NPYLR7 ag max-min
# N#Cc1ccc(/C=C/c2nc3ccccc3c(=O)[nH]2)cc1 as listed: 4, 0
# CN(Cc1ccc(F)cc1)C(=O)NCc1ccc2c(c1)OCO2 as listed: 2&7, 2&0
# O=C(CN1CCN(c2ccc3c(c2)OCCO3)C1=O)Nc1nc(-c2ccco2)cs1 as listed: -4, -4
# COc1c(Br)c(CC2CC(C(N)=O)=NO2)c(Br)c2c1OCO2 (stereo not drawn) as listed: -5, -10

# (further entries)
SMILES,NPYLR7 ag,NPYLR7 ag max-min
O=c1[nH]c(CN2CCc3ccccc32)nc2scc(-c3ccc(F)cc3)c12,7,4
CCCCN(C)C(=O)Cn1ncn2c(cc3sc(CC)cc32)c1=O,7,7
Cc1nc(-c2ccoc2)n(CC(=O)NN(C)c2ccccc2)c1C,11,4
CC(=O)Nc1ccc(CN2C(=O)C(Cc3ccccc3)ON=C2c2ncccc2C)cc1 (stereo not drawn),2,1
CC(C)SC(NC(=O)OCc1ccccc1)C(=O)NCCc1c[nH]c2ccccc12 (stereo not drawn),-5,-9
COc1ccc2c(c1)CC(CNC(=O)c1ccccc1Cl)O2 (stereo not drawn),30,26
CSc1ncc(CNC(=O)c2cn(-c3ccccc3)nn2)n1C,0,8
COc1ccc(C(=O)Nc2ccc(S(=O)(=O)Nc3nc(C)cc(C)n3)cc2)cc1,13,8
CC(C)c1nnc(SC(C(=O)NCc2cccnc2)C(C)C)n1C1CC1 (stereo not drawn),-5,-6
COc1c(F)cccc1C(=O)N1CCC2(CC1)CC(C(=O)O)N(C)C2 (stereo not drawn),7,12
COC[C@@H]1OC[C@@]2(C)C3CC[C@@H](O)[C@@H](CC(=O)N4CCCC4)[C@]3(C)CC[C@H]2O1 (stereo partly drawn),-8,-17
O=C(Nc1cccc(-c2nc3ccccc3o2)c1)c1ccc(Cl)c(Cl)c1,-7,-10
O=C(CCS(=O)(=O)c1ccc2c(c1)OCCO2)Nc1cccc2ccccc12,-2,-6
O=C(Nc1ncc(Cl)s1)C1CC1c1ccco1 (stereo not drawn),-2,-4
COCCNc1oc2c(c1-c1cccc([N+](=O)[O-])c1)c(=O)oc1c(C)cccc12,-7,-10
CCn1cc(S(=O)(=O)Nc2cc(-c3cc(C)cc(C)c3)[nH]n2)cn1,-2,0
CCC(=O)C(C)OC(=O)CN(C)c1cnccn1 (stereo not drawn),-2,-3
O=C(Nc1oc2ccccc2c(=O)c1-c1ccccc1)C1CCCCC1,20,14
CCCCCCOCCOCCOC(=O)N1CCC2(CC1)C(=O)NCN2c1ccccc1,-21,-27
CC(C)(C)C1CCC2(CC1)NC(=O)N(CC(=O)NCc1cnc3ccccc3c1)C2=O (stereo not drawn),-1,-1
COc1cc(Br)cc(C2N=C(N)Nc3nc4cc5c(cc4n32)OCCCO5)c1O (stereo not drawn),11,15
Cc1cc(C)n(Cc2cc(C(=O)N3CCCC3c3ccccc3C)n[nH]2)n1 (stereo not drawn),11,6
CCC(CC)C(=O)N(Cc1cc(NC(=O)C(C)C)ccc1N(C)C)C(C)c1ccccc1 (stereo not drawn),13,11
CCN1C(=S)SC(=O)C1=C1C=C(C)N(Cc2ccco2)C(C)=C1,13,12
COc1ccc2c(c1)SC(C)C(=O)N2Cc1ccccc1C (stereo not drawn),5,1
CC(=O)N1CCC(Nc2nc(CN3CCOCC3)nc3sc4c(c23)CCC(C)C4)CC1 (stereo not drawn),9,14
CC(C)CN(CC(=O)N(Cc1ccc(F)cc1)Cc1cccs1)C(=O)c1cccc(C(F)(F)F)c1,-2,5
Cc1cc(NC(=O)Cc2ccccc2)n(-c2ncnc3c2cnn3-c2ccc(F)cc2)n1,5,6
COc1cc(-n2cnc3cnc(-c4cccc(OC(F)(F)F)c4)cc32)cc(OC)c1OC,5,-4
O=C(CC1C(=O)NCCN1C/C=C/c1ccccc1)NCCc1cn2ccccc2n1 (stereo not drawn),1,-1
Cc1c(C)c2c(c(C)c1O)CCC(C)(C(=O)Nc1cnc3n1CCCC3)O2 (stereo not drawn),38,33
CCCc1nc(N2CCCN(C(=O)Nc3ccc(C(F)(F)F)cc3)CC2)c2c(C)nn(-c3ccccc3)c2n1,9,13
Cc1cc(C)n(C)c(=O)c1C(=O)O,-3,0
COc1ccc(SCC(=O)NC(=O)c2cccs2)cc1,11,6
Cc1cc(CNC(=O)N2CCN(Cc3ccccc3)C(C)(C)C2)no1,9,5
O=C(C(Cl)Cl)N1CCN(c2nc3nccc(-c4cc(Cl)ccc4Cl)n3n2)CC1,2,-2
CCc1cccc(N2CC(C(=O)Nc3cccc(C#N)c3)CC2=O)c1 (stereo not drawn),1,-2
C=CCn1c(-c2ccc3c(c2)OCCO3)csc1=Nc1c(C)n(C)n(-c2ccccc2)c1=O,-5,-10
CCc1nc(C)c(C(=O)N2CCCC3(CC2)CNC(=O)O3)o1 (stereo not drawn),9,9
COC(=O)CCCCC(=O)c1[nH]c(=O)[nH]c1C,8,5
Cc1ccc(C)c(-n2cnc(=O)[nH]2)c1,-1,-2
O=C(NC1CCN(c2ccccc2C(=O)N2CCN(C(=O)C3CCCO3)CC2)CC1)C1CCCC1 (stereo not drawn),7,11
O=C(CCOc1cccc(F)c1)NC1CCc2ccccc21 (stereo not drawn),1,2
C#CCNC(=O)CN1CC2=C(C1=O)C(c1cccc(Cl)c1)NC(=O)N2CC=C (stereo not drawn),4,16
CCCN(CC(=O)N1CCc2sccc2C1c1ccc(Cl)cc1)C(=O)Nc1ccc(OC)cc1OC (stereo not drawn),-3,6
COc1cc(OC)cc(C(=O)N(CCCN2CCOCC2)CC(=O)N(Cc2ccc(F)cc2)Cc2ccco2)c1,7,8
Cn1cc(-c2nc(C(=O)NC34CC5CC(CC(C5)C3)C4)cs2)cn1,0,-2
COc1ccc(-c2cccc(-c3cccc(NC(=O)c4ccc(F)cc4C(F)(F)F)c3)n2)cc1,-2,-3
COc1cccc(-c2cc(C(=O)NCc3cccc(C(F)(F)F)c3)n(-c3ccc(Cl)c(Cl)c3)n2)c1,-1,12
O=C(O)c1cccc(CS(=O)(=O)c2ccccc2)c1,-5,-7
# New compounds follow:
SMILES,NPYLR7 ag,NPYLR7 ag max-min
Cc1[nH]n(-c2ccc([N+](=O)[O-])cc2)c(=O)c1N=Nc1nc2ccccc2s1,-15,-19
COC(=O)c1ccc(Cn2cc([N+](=O)[O-])cn2)cc1,-6,-11
Cc1noc(C)c1C(=O)N1CCC2(CCCN(Cc3cccc(F)c3F)C2)C1 (stereo not drawn),7,2
O=C(CSc1nnc(SCc2ccccc2)s1)NN=Cc1ccc([N+](=O)[O-])cc1,-4,-10
CCOc1ccccc1C(=O)Nn1cnc2c(cnn2-c2ccc(C)cc2)c1=O,22,14
Cc1ccc(NC(=O)Cn2c3ccccc3c(=O)c3ccccc32)c(Br)c1,-2,-5
Cc1ccn2c(=O)c(NC(=O)c3ccccc3F)c(C)nc2c1,2,-1
c1cnc(Sc2nc3ccccc3s2)nc1,4,6
CCCCn1nnnc1CN1CCOC(c2ccc(Br)cc2)C1 (stereo not drawn),4,1
O=C(CSc1nnc(-c2ccc(Cl)cc2)n1-c1ccccc1)N/N=C\c1ccc(OCc2ccccc2)cc1,13,13
CCc1ccccc1N1CCN(C(C)=O)C(C)C1=O (stereo not drawn),-1,-1
Nc1nc(NCCc2ccccc2)nc(N2CCN(Cc3ccccc3)CC2)c1[N+](=O)[O-],0,-1
CCN(Cc1ccncc1)C(=O)C1CCCN1C(=O)C1CCCCC1 (stereo not drawn),18,10
Cc1cc(C)cc(-n2nc3c(c2NC(=O)/C=C\c2ccccc2)CSC3)c1,-4,-2
O=C(N=C1N=C2C=CC(Cl)=CN2Cc2ccccc21)c1ccc(-c2ccccc2)cc1,-6,-10
N#CC(C(=O)O)C1C(=O)Nc2ccccc21 (stereo not drawn),-3,-10
Clc1cc(Cl)c2[nH]c3c(c2c1)CNCC3,1,-1
CCC1CCCCN1C(=O)c1cc2c(s1)-c1cc(OC)ccc1CC2 (stereo not drawn),3,-1
CN(C)c1ccc(/C=C2/SC(=S)N(CC(=O)O)C2=O)cc1Br,124*,184*
CCCc1cc(NCC(C)C)n2nc(C)c(-c3ccccc3)c2n1,6,7
CC1=C[C@@H](CC#N)[C@H](C(C)C)C[C@H]1CC(=O)NC(C)C,-7,-14
COc1cc(/C=C2\SC(=Nc3cc(C)cc(C)c3)NC2=O)cc(Cl)c1O,-9,-15
COCCn1c(SCc2ccc(Br)cc2F)nnc1-c1cc(-c2ccccc2)nc2ccccc12,-1,5
CN(CC(N)=O)C(=O)C=C1CCCCC1,-7,-8
CCCNC(=O)C1(C)CCCN(Cc2ccc(-n3ccnc3)cc2)C1 (stereo not drawn),1,3
Cc1cc(=O)c(OCc2ccc(F)cc2)cn1CC(N)=O,1,0
CCN(Cc1cccc(F)c1)C(=O)Nc1nnc(C(C)C)s1,5,4
O=C(NCc1cccs1)c1cc(Br)ccc1Cl,1,-2
CN(C)S(=O)(=O)N1CCN(c2ccc([N+](=O)[O-])c(NC3CC3)c2)CC1,-9,-10
COCCn1c(=O)c2c(nc3n(CCc4ccccc4)c(C)c(C)n23)n(C)c1=O,6,0

# Some of the entries so far, field by field:
CC1=C[C@@H](CC#N)[C@H](C(C)C)C[C@H]1CC(=O)NC(C)C
  NPYLR7 ag = -7	NPYLR7 ag max-min = -14

COc1cc(/C=C2\SC(=Nc3cc(C)cc(C)c3)NC2=O)cc(Cl)c1O
  NPYLR7 ag = -9	NPYLR7 ag max-min = -15

COCCn1c(SCc2ccc(Br)cc2F)nnc1-c1cc(-c2ccccc2)nc2ccccc12
  NPYLR7 ag = -1	NPYLR7 ag max-min = 5

CN(CC(N)=O)C(=O)C=C1CCCCC1
  NPYLR7 ag = -7	NPYLR7 ag max-min = -8

# Exported with each value named: entries from further up
> Cc1cc(=O)c(OCc2ccc(F)cc2)cn1CC(N)=O
  NPYLR7 ag: 1
  NPYLR7 ag max-min: 0
> CCN(Cc1cccc(F)c1)C(=O)Nc1nnc(C(C)C)s1
  NPYLR7 ag: 5
  NPYLR7 ag max-min: 4
> O=C(NCc1cccs1)c1cc(Br)ccc1Cl
  NPYLR7 ag: 1
  NPYLR7 ag max-min: -2

# Next entries follow:
SMILES,NPYLR7 ag,NPYLR7 ag max-min
CCc1nc2ccc(C(=O)NCc3ccc4c(c3)OCO4)cn2c1N(C)C(=O)Cc1ccccc1,-5,-11
CCCN(CC(=O)N(CCc1ccc(OC)c(OC)c1)Cc1sccc1C)C(=O)c1ccc2c(c1)OCO2,-6,0
CCc1nc2ccc(C(=O)N(CC)CCN(C)C)cn2c1N(C)CC,6,-4
O=c1oc(-c2ccco2)nc2cc(Cl)ccc12,-3,-6
O=c1nc(SCc2ccc([N+](=O)[O-])cc2)nc2ccccn12,7,5

# Source: PubChem BioAssay (Fisher Drug Discovery Resource Center)
